2A StopGo: lowers the luciferase signal of an FMDV 2A StopGo reporter; AID 1159524; 410,000 compounds, 1.2% hits; human cells with a luciferase reporter of 2A StopGo recoding; control for the full effect not named in the record; Potency, µM (highest dose often 57.9 µM), for the others: at the highest dose signal change, negative = less light; active = well fitted falling curve with a large enough effect; inconclusive = small, poorly fitted or top-dose-only effect; inactive = no such curve, though single readings can be large or run the other way; tested in HEK293T cells; note: % is set by controls: 0 for no effect and ±100 for the full control effect; nearly all actives have a fitted effect of over 45% in size; luciferase light after 4 h
Cruzain inh Det: cruzain (T. cruzi) inhibition with detergent; P25779; purified cruzain, Z-FR-AMC fluorescence, 0.01% Triton; Potency, µM, for the others: max response, negative = inhibition, actives largely listed as inhibitors; 200,000 compounds, 0.43% hits;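 note: plate controls were neutral wells for no effect and buffer without enzyme for full effect; nearly all actives have a fitted effect of over 40% in size; top concentration of the series not given in the record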
Target sequence (P25779 123-467 limits assumed): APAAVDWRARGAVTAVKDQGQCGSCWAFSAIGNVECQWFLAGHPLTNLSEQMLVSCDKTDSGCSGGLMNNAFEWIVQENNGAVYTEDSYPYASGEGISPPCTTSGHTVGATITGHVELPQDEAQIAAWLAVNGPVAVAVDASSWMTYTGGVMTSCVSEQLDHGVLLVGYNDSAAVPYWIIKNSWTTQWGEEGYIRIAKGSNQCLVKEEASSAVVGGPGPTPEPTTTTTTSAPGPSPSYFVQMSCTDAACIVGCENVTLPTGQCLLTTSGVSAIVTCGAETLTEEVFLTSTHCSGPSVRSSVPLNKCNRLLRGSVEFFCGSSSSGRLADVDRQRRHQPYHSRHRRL
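Cruzain (1.5 nM) preincubated 15 min at RT with compound in 100 mM sodium acetate pH 5.5, 5 mM DTT, 0.01% Triton X-100. Reaction started with 2 uM Z-FR-AMC; AMC fluorescence (ex 360/em 450 nm) change over 60 s gave rate.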
SARS PLP yeast: blocks SARS-CoV papain-like protease in a yeast assay. Potency, µM (highest dose often 32.9 µM), for inactives: at the highest dose activity, positive = growth rescue. 330,000 compounds, 0.19% hits. AID 485353. S. cerevisiae expressing SARS-CoV PLpro, growth rescue; control for the full effect not named in the record; active means well fitted rising curve with a large enough effect; inconclusive means small, poorly fitted or top-dose-only effect; inactive means no such curve, though single readings can be large or run the other way; note: 0% is about no effect; nearly all actives have a fitted effect of over 55% in size; growth read by luminescence after 48 h
NS1 inh: inhibitors of influenza NS1 protein function; S. cerevisiae slowed by influenza A NS1, growth recovery by OD600; Potency, µM (doses to about 46.1 µM), inactives show at the top dose activity, positive = more growth; 270,000 compounds, 0.4% hits; AID 2326; active means well fitted rising curve with a large enough effect; inconclusive means small, poorly fitted or top-dose-only effect; inactive means no such curve, though single readings can be large or run the other way; note: nearly all actives have a fitted effect of over 50% in size
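Growth recovery, yeast-based: influenza A NS1 expressed in S. cerevisiae causes slow growth, and suppressors are detected by OD600. The parent strain without NS1 is used as positive control.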
RE007 growth inh: less growth of the S. pombe RE007 Vpr strain. S. pombe RE007 Vpr strain, BacTiter-Glo ATP luminescence, 24 h; control for the full effect not named in the record. Potency, µM (highest dose often 92.2 µM), inactives show top-dose activity change, negative = less growth. 360,000 compounds, 0.21% hits; active = well fitted falling curve with a large enough effect; inconclusive = small, poorly fitted or top-dose-only effect; inactive = no such curve, though single readings can be large or run the other way;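 note: % is set by controls: 0 for no effect and ±100 for the full control effect; nearly all actives have a fitted effect of over 50% in size; the assay follows cell death caused by Vpr and the record does not say whether a fall means rescue or toxicity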
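Fission yeast RE007 carrying one integrated HIV-1 vpr copy, seeded at OD 0.01 in PMG+AL medium with 23 nL pinned compound. Grown 24 h at 30 degrees; viability read by BacTiter-Glo luminescence after 5 min.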
Marburg entry inh: blocks Marburg virus binding to or entry into cells. 300,000 compounds, 1.8% hits. Marburg virus pseudotyped entry inhibition, cell reporter; control for the full effect not named in the record; about a third of the inactives were read at about 46 µM. Potency, µM (top dose mostly 37.8 µM), for the others: at the top dose activity change, negative = inhibition, hits mostly inhibitors; active = well fitted inhibition curve with a large enough effect; inconclusive = small, poorly fitted or top-dose-only effect, or effect the other way; inactive = flat fitted curve, though single readings scatter; tested in HEK293 cells; about a fifth of its hits are not listed in these tables; note: % is set by controls: 0 for no effect and ±100 for the full control effect; luciferase read-out
Cruzain inh noDet: blocks cruzain activity in detergent-free assay. 200,000 compounds, 2.3% hits. purified cruzain, Z-FR-AMC fluorescence, no detergent. Potency, µM, for the others: max response, negative = inhibition, actives largely listed as inhibitors. P25779;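 note: plate controls were enzyme without inhibitor for no effect and buffer without enzyme for full effect; nearly all actives have a fitted effect of over 40% in size; top concentration of the series not given in the record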
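Purified cruzain at 1.5 nM, pre-incubated 15 min with compound at room temperature in 100 mM sodium acetate pH 5.5, 5 mM DTT, 0.00005% Triton X-100. Reaction started with 2 uM Z-FR-AMC; AMC fluorescence increase over 60 s gives rate.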
LASV entry inh: blocks Lassa virus binding to or entry into cells. Lassa virus pseudotype entry inhibition, cell reporter; control for the full effect not named in the record. Potency, µM (top dose mostly 37.9 µM), for the others: top-dose activity change, negative = inhibition, usual class: inhibitors. 300,000 compounds, 1.2% hits. AID 540256; active means well fitted inhibition curve with a large enough effect; inconclusive means small, poorly fitted or top-dose-only effect, or effect the other way; inactive means flat fitted curve, though single readings scatter; tested in HEK293 cells; note: % is set by controls: 0 for no effect and ±100 for the full control effect; nearly all actives have a fitted effect of over 50% in size; luciferase read-out
* marks the source's active call; other numbers are inactive results; ? = inconclusive; / = no result given; & = joins results of further samples; [ ] = dose if it differs, or a comment. Unless noted, calls come from the whole dose curve; as a rule, active = well fitted curve in the direction sought with a large enough effect; inconclusive = small, poorly fitted or top-dose-only effect, or another doubt; inactive = no such curve, though single readings can be large; an effect the other way counts as inactive or inconclusive. Potency is the fitted concentration of half-maximal effect. An unsorted share of the library; any-hit rate near 4.7%.

Each structure is followed by: 2A StopGo | Cruzain inh Det | SARS PLP yeast | NS1 inh | RE007 growth inh | Marburg entry inh | Cruzain inh noDet | LASV entry inh
> CCOc1ccc(OCC)c(NC(=O)CSc2nc3ccccc3c(=O)n2C)c1
    ? | -3.5% | 2% | -11% | 23% | ? | 24% | ?
> CCCC1=[N+](CC(=O)c2ccc(Br)cc2)CCn2cccc21
    -4% | / | -2% | 1% | ? | ? | / | ?
> N#Cc1ncc(C(F)(F)F)cc1Sc1ccc(N)cc1
    ? | -17% | 1% | -46% | 0% | 12% | -2% | -11%
> CCn1c(=O)c([N+](=O)[O-])c(NCCN(C)C)c2ccccc21
    -10% | / | 0% | 2% | 2% | / | / | /
> C=CCNC(=O)C(C)Sc1ccc(Cl)cc1 (stereo not given)
    0% | -0.3% | 2% | 1% | 7% | 0% | -8% | -1%
> CC1CCCN(CCCNC(=O)C2CC(=O)N(CCc3ccccc3)C2)C1 (stereo not given)
    -22% | / | 4% | -4% | 1% | / | / | /
> COc1ccc2c(c1)c1c(c(=O)n(-c3ccccc3)c(=O)n1CC(=O)Nc1ccc(C)c(C)c1)n2C
    -6% | 1.0% | / | / | / | / | -2% | 23%[46.1 µM]
> O=C(c1ccc2ccccc2n1)N1CCN(Cc2c(F)cccc2Cl)CC1
    -11% | / | 0% | -28% | 3% | ? | / | -11%
> O=C(CSc1nc2ccccc2n1Cc1cccc(F)c1)NCc1ccccc1
    -17% | -4.2% | / | / | / | / | 10% | 3%[46.1 µM]
> COc1ccc(-c2cc(=O)c3ccccc3[nH]2)cc1
    22% | -1.7%&-2.0% | -11% | -14% | -8% | -8% | -5%&-2% | 6%
> CCCOC(=O)c1c(NC(=O)CSc2nc(-c3ccco3)cc(C(F)(F)F)n2)sc(C(=O)OC)c1C
    -13% | 2.1% | -8% | 4% | 1% | -27% | ? | 4%
> O=C(Cc1ccc(F)cc1)Nc1ccc(F)c([N+](=O)[O-])c1
    1% | 4.2% | -14% | -11% | 12% | 12%[46.1 µM] | 7% | -8%
> CCCCCCC(=O)N/N=C/c1c(O)n(C(C)CC)c(=S)[nH]c1=O (stereo not given)
    -16% | / | 0% | 2% | -13% | / | / | /
> Cc1cccc(NC(=O)c2cccc(C(=O)Nc3cccc(C)c3)n2)c1
    0% | / | / | / | 14% | -9%[46.1 µM] | / | ?
> CN(C(=O)c1ccc(N2CCCCC2)c([N+](=O)[O-])c1)C1CCS(=O)(=O)C1 (stereo not given)
    -9% | / | 0% | / | 0% | -12%[46.1 µM] | / | -1%[46.1 µM]
> CC1CCCCN1CCNC(=O)C1CC(=O)N(c2ccc(F)c(Cl)c2)C1 (stereo not given)
    -11% | 3.8% | -1% | 7% | 3% | -3% | 3% | 19%
> COc1cc2c(cc1NC(=O)CSCC(=O)O)oc1ccccc12
    -16% | -4.6% | -4% | 3% | -10% | -12% | -19% | -23%
> CCN(CC)S(=O)(=O)c1ccc(C(=O)NCc2ccc3c(c2)OCO3)cc1
    1% | / | 0% | / | 7% | ? | / | -11%
> Cc1cccc(CN2CCC(C(N)=O)CC2)c1
    / | 6.0% | 3% | 0% | -9% | -16% | -17% | 17%
> O=C(N/N=C\c1ccc2c(c1)OCO2)c1ccc(Cn2cc(Br)c([N+](=O)[O-])n2)o1
    8% | / | 0% | -2% | 78% | 0%[46.1 µM] | / | 5%[46.1 µM]
> CC(C)(C)NC(=O)Cc1ccc(Cl)c(Cl)c1
    1% | / | -3% | -3% | 12% | 12%[46.1 µM] | / | 11%[46.1 µM]
> CCOC(=O)c1cnc2ccc(OCC)cc2c1NCc1cccnc1
    15% | -7.7% | -13% | -21% | -29% | ? | -6% | -16%
> O=c1c(-c2ccccc2)coc2c(CN3CCCC3)c(O)ccc12
    2% | 1.4% | -2% | -1% | -9% | -16% | -3% | 15%
> Cc1ccc(Cn2c(C)c3cnn(CC(=O)N4CCN(c5ccc(F)cc5)CC4)c(=O)c3c2C)cc1
    ? | -5.4% | / | / | / | 5%[46.1 µM] | ? | ?
> O=C(CC1C(=O)NCCN1C/C=C/c1ccccc1)NCCc1cnccn1 (stereo not given)
    -17% | / | -2% | -2% | 6% | 15% | / | -3%
> COc1ccc(NC(=O)CSc2nncs2)cc1OC
    21% | -1.3% | 4% | -9% | 8% | -2% | 4% | 0%
> O=C(CC1C=Cc2ccccc2N1C(=O)c1ccccc1)c1ccccc1 (stereo not given)
    -25% | / | -3% | -2% | -2% | / | / | /
> COc1cccc(/C=C2/CN(C)CC3=C2OC(N)=C(C#N)C3c2cccc(OC)c2)c1 (stereo not given)
    0% | -11% | -5% | 4% | 7% | ? | -13% | -23%
> COc1ccc(OCC(O)Cn2c(=N)n(CCN3CCCCC3)c3ccccc32)cc1 (stereo not given)
    -27%&-2% | -6.0%&-3.4% | 6% | -8% | ? | ? | 1%&-5% | ?
> Cc1ccc(S(=O)(=O)N2CCCC2C(=O)O)cc1 (stereo not given)
    -12% | 5.1% | 5% | -9% | -3% | 11% | -5% | 12%
> CC(C)(C)n1nnnc1C(c1ccccc1)N1CCc2ccccc2C1 (stereo not given)
    -23% | 2.5% | -3% | -37% | 12% | ? | -5% | 7%
> Cc1cc(-n2ccc(=O)[nH]c2=O)nc(-c2ccccc2)n1
    -2% | -2.3% | 0% | -2% | 3% | -9% | -1% | 20%
> COc1cccc(C(=O)N2CCC(n3nccc3NC(=O)CCOc3ccccc3)CC2)c1
    21% | / | ? | 0% | 0% | / | / | /
> O=C(CCC(=O)Nc1ccc(F)cc1)N/N=C/c1ccc(F)cc1
    6% | / | 1% | 6% | 7% | / | / | /
> CCOCC(=O)Nc1cccc(NC(C)=O)c1
    -8% | 9.3% | 0% | 9% | -17% | 1%[46.1 µM] | 3% | 5%
> Cc1ccc(CC2CC(=O)N(c3ccncc3)C2=O)cc1 (stereo not given)
    -6% | 3.3% | 1% | -3% | -9% | 2% | 8% | -3%
> COc1ccc(CC(=O)N2CC(=O)Nc3ccc(Br)cc3C2c2ccc(F)cc2)cc1 (stereo not given)
    -2% | -5.4% | / | / | / | -1%[46.1 µM] | -24% | ?
> Cc1ccc(C)c(N2CCN(C(=O)c3cc(C)nc4c3c(C)nn4-c3cccc(F)c3)CC2)c1
    -23% | 5.6% | / | / | / | / | -5% | 20%[46.1 µM]
> COc1ccccc1S(=O)(=O)Nc1cccc(-c2nnc3n2CCCCC3)c1
    26% | 0.8% | 2% | 4% | 3% | 12% | -9% | -1%
> Cc1ccccc1-c1nc2scc(CCNC(=O)c3ccco3)n2n1
    0% | -0.5% | / | / | / | / | -6% | 2%[46.1 µM]
> COc1cccc(C2=CC(c3ccc(N(C)C)cc3)n3ncnc3N2)c1 (stereo not given)
    / | -4.7% | -11% | -20% | / | 7% | 18% | /
> COc1ccc(CSC2=NCCN2)cc1Br
    -15% | / | ? | -6% | -21% | / | / | /
> Cc1cnc(C(=O)OCC(=O)c2ccc(Br)s2)cn1
    -19% | / | -2% | / | 7% | -2%[46.1 µM] | / | -11%
> COCc1[nH]nc2c1C1(CCSCC1)C(C#N)=C(N)O2
    / | 2.6% | 1% | 0% | 4% | 15% | -8% | 23%
> Cc1ccccc1OCC(=O)NCCN(C)C
    -2% | 5.1% | 2% | -10% | -7% | 12% | -6% | 2%
> Cc1cc(-c2nnc(SCC(=O)Nc3ccc(F)cc3)n2N)n[nH]1
    -2% | / | 1% | 2% | 9% | 16%[46.1 µM] | / | ?
> CCN(CC)S(=O)(=O)c1ccc(-c2nnc(SCC(=O)c3ccc(OC)cc3)o2)cc1
    ? | -13% | 9% | 6% | 7% | -2%&-29% | -23% | -25%
> Clc1ccc(N2CCN(Cc3ccco3)CC2)cc1
    -7% | / | 1% | -2% | 1% | 1% | / | -5%
> Cc1cccc(-n2ncc3c(NCc4ccc5c(c4)OCO5)ncnc32)c1
    2% | -6.8% | -16% | -13% | 1%[3.69 µM] | 3% | -7% | 2%
> Cc1ccc([N+](=O)[O-])c(OCCN2CCC(Cc3ccccc3)CC2)c1
    -29% | / | -2% | -11% | 13% | ? | / | ?
> O=C(NCCCCO)C(F)(F)C(F)(F)C(F)(F)C(=O)NCCCCO
    1% | 2.3% | 1% | 4% | 0% | ? | -1% | 2%
> CCN(C1CCS(=O)(=O)C1)S(=O)(=O)c1cccc([N+](=O)[O-])c1 (stereo not given)
    5% | / | 0% | 2% | -2% | 6%[46.1 µM] | / | -14%
> COc1ccc(S(=O)(=O)N(CCC(=O)O)Cc2ccccc2)cc1
    4% | / | 1% | / | 4% | 3%[46.1 µM] | / | 2%
> COc1ccc(-c2cc(C)no2)cc1S(=O)(=O)Nc1ccc(NC(C)=O)cc1
    16% | / | -4% | -8% | 1% | -22%[46.1 µM] | / | -13%[46.1 µM]
> O=C(Cn1nc(C(=O)O)c2ccccc2c1=O)c1c[nH]c2ccccc12
    18% | / | 0% | 1% | -6% | -2% | / | 7%
> COc1ccc(CCN=Cc2ccc(O)cc2)cc1OC
    -5% | / | 6% | 10% | 0% | -1% | / | 8%
> Cc1nnc(N2CCCC(C(=O)NCc3ccccc3F)C2)c2nn(-c3ccccc3)c(C)c12 (stereo not given)
    0% | / | 1% | -3% | -15% | / | / | /
> CC1(C)C(CC(=O)O)CC1C(=O)O (stereo not given)
    -5% | / | / | / | 1% | 5%[46.1 µM] | / | -3%[46.1 µM]
> CC(NC(=O)c1ccco1)C(=O)N1CCN(C(c2ccccc2)c2ccccc2)CC1 (stereo not given)
    ? | / | -7% | -23% | 5% | -17% | / | -14%
> Cc1ccc(OC(=O)Nc2ccccc2)cc1
    -6% | / | -1% | / | -20% | ? | / | -1%[46.1 µM]
> N/C(=N\OC(=O)c1cc(Br)ccc1Cl)c1cccnc1
    12% | / | 0% | 0% | 6% | 10%[46.1 µM] | / | 2%[46.1 µM]

Screens: PubChem BioAssay, National Center for Advancing Translational Sciences (NCATS)
